Bioassay records (PubChem)
Arbovirus inh: antivirals against arbovirus infection. arbovirus infection cell-based antiviral screen. inhibition, % at 10 µM. 200,000 compounds, 0.37% hits;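 active = inhibition from about 30%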;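 note: bluetongue infection of BSR cells; cell survival read as ATP light after 72 h; 0% = infected wells without compound and 100% = uninfected wells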
YopH inh: YopH (Yersinia) phosphatase inhibition; inhibition, %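 (about 10 µM by stock and volumes)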; 140,000 compounds, 0.16% hits; AID 898; fluorescence Ex485/Em525;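 active = inhibition of 50% or more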;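 note: controls were vehicle for no effect and minimum signal wells for full effect; inactives centre near -20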
RecA splice inh: Mtb RecA intein splicing inhibition | P9WHJ3 | cell-free RecA intein splicing, fluorescence | inhibition, %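 (about 9 µM by stock and volumes)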 | 290,000 compounds, 0.75% hits | AID 2221; in the data active = inhibition above about 30%; inconclusive = no clear call, values can overlap the other calls;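 note: 0% = vehicle wells and 100% = reference inhibitor control wells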
Target sequence (P9WHJ3 whole entry, looked up, canonical isoform): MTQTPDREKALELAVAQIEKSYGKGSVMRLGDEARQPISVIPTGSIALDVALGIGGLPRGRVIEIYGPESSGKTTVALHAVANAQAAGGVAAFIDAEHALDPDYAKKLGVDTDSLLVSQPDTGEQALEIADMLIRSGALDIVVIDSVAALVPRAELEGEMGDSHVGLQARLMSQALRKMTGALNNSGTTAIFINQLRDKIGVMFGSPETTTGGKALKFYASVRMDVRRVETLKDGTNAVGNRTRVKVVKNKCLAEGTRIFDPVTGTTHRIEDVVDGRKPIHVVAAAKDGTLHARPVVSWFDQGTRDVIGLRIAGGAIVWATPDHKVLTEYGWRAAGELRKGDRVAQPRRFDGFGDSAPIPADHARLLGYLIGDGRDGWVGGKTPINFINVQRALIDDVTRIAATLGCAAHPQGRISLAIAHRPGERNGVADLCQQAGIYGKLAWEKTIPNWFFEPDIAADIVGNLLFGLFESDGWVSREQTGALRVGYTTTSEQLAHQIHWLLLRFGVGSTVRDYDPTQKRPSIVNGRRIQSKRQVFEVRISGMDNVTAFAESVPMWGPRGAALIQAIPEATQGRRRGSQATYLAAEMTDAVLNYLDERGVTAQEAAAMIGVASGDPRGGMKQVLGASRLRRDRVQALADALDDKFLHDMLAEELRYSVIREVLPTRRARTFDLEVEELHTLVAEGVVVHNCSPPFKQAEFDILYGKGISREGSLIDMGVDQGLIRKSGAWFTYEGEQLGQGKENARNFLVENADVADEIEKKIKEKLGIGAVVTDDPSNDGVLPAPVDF
Mtb betalactam: beta-lactam sensitization of Mtb H37Rv. AID 434955. inhibition, % at 25 µM. 330,000 compounds, 0.27% hits. M. tuberculosis H37Rv growth with meropenem, percent inhibition; hits of this screen are not shown here;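 active = about 74% or more and at least 40 points above the plate without the antibiotic, then above 30% in a dose series; inconclusive = first-round hits that could not be retested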;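 note: growth measured after seven days incubation then overnight dye step; 0% = bacteria only wells and 100% = bacteria with antibiotic; twin plates without the antibiotic show which effects depend on it; some results filed as inactive read as strong as hits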
Mtb growth: M. tuberculosis H37Rv growth inhibitors, H37Rv strain (AID 1626) | M. tuberculosis H37Rv growth inhibition; higher % means a stronger effect | 220,000 compounds, 0.95% hits | inhibition, % at 10 µM; hits with a dose series show IC50 in µM;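 active = confirmed in a dose series; inconclusive = inhibition above 80% but not taken into the dose series; inactive = below 80% or under 30% at every dose of the series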;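 note: bacteria incubated seven days before Alamar blue readout; 0% = bacteria only wells and 100% = bacteria with antibiotic wells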
Arbovirus inh repeat: recorded beside Arbovirus inh, whose call it bears; inhibition, %; measured here: 10K subset replicate screen; many hits read low in the repeat;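 first of two repeat runs on a subset; 0% = infected and 100% = uninfected wells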
* hit, by the source's call. These rows are one share of the data; rates above refer to the full screens.

For Cc1ccc2cc3cc(C(=O)NCc4ccc5c(c4)OCO5)oc3nc2c1 the results were Arbovirus inh -13, YopH inh -44 and RecA splice inh -0.4.
For CC1(C)SC2[C@H](NC(=O)C(NC(=O)N3CCNC3=O)c3ccccc3)C(=O)N2C1C(=O)O (stereo partly drawn) the results were Arbovirus inh 2 and YopH inh -44.
For CC1Cc2ccccc2N1Cc1ccc([N+](=O)[O-])cc1 (stereo not drawn) the results were RecA splice inh 5.7 and Mtb betalactam -1.
CCCNC(=O)N1CCC(C(=O)c2ccc(Cl)cc2)CC1 was read as Arbovirus inh 14, YopH inh -23, RecA splice inh 5.0, Mtb betalactam -5 and Mtb growth 4%.
Screening N#Cc1cccc(NC(=O)Cn2c3[n+](c4ccc(C(F)(F)F)cc42)CCCCC3)c1 returned Arbovirus inh -6, YopH inh -7, RecA splice inh -0.9, Mtb betalactam inconclusive and Mtb growth 8%.
Screening Cc1sc2nc(SCC(=O)N(C)C)[nH]c(=O)c2c1C returned Arbovirus inh -3, YopH inh -18, RecA splice inh 1.9, Mtb betalactam 1 and Mtb growth -1%.
For C[C@H]1CNC(=O)C(=O)N1C[C@H](Cc1ccc(O)cc1)NC(=O)CC12CC3CC(CC(C3)C1)C2 the results were RecA splice inh -3.1 and Mtb betalactam 4.
Screening O=C1NCCCC1C(=O)N/N=C/c1ccccc1 (stereo not drawn) returned Arbovirus inh -2, YopH inh -33, RecA splice inh 2.0, Mtb betalactam 2 and Mtb growth -8%.
Screening COc1ccc(C2CC(=O)C(C(c3ccc(O)cc3)C3C(=O)CC(c4ccc(OC)cc4)CC3=O)C(=O)C2)cc1 (stereo not drawn) returned RecA splice inh 2.5, Mtb betalactam 13 and Mtb growth 14%.
`COc1nc(OCCNC(=O)Nc2ccccc2)nc(N(C)C)n1` gave Arbovirus inh -1, YopH inh -16, RecA splice inh -0.8, Mtb betalactam -5 and Mtb growth -4%.
Cn1cc(/C=N/NC(=O)c2cc3cc(Br)ccc3o2)c2ccccc21 was read as RecA splice inh -35, Mtb betalactam 1 and Mtb growth -2%.
Cc1ccc(S(=O)(=O)CC(O)CN2CCCC2=O)cc1 (stereo not drawn) was read as Arbovirus inh 5, YopH inh -24, RecA splice inh 1.6, Mtb betalactam -19 and Mtb growth 1%.
Screening O=C(Cn1nnc(-c2ccccc2)n1)NCc1ccco1 returned Arbovirus inh 2, YopH inh -34, RecA splice inh 0.9, Mtb betalactam -1 and Mtb growth 2%.
Screening O=c1c2ccccc2cnn1Cc1n[nH]c(=S)n1-c1ccccc1Cl returned Arbovirus inh -2, YopH inh -19, RecA splice inh 0.0, Mtb betalactam -10 and Mtb growth 5%.
For C=CCn1c(CNC(=O)c2ccco2)nnc1SCC(=O)Nc1cccc(Br)c1 the results were Arbovirus inh 5, YopH inh 0, RecA splice inh 2.3, Mtb betalactam -10 and Mtb growth -6%.
Screening COc1cc(/C=N/NC(=O)c2ccccn2)ccc1OC(=O)c1cccs1 returned RecA splice inh 9.1 and Mtb betalactam 92.
Screening CN1CCN(CCOc2ccc(Cl)c(Cl)c2)CC1 returned Arbovirus inh -10, YopH inh -3, RecA splice inh -2.4, Mtb betalactam -10 and Mtb growth 2%.
CC(=O)Nc1ccc(NC(=O)C(=O)NCC(c2ccco2)N2CCc3ccccc32)cc1 (stereo not drawn) was read as RecA splice inh -3.8 and Mtb betalactam -1.
CC1CCc2c(sc3[nH]c(=S)n(C)c(=O)c23)C1 (stereo not drawn) was read as RecA splice inh -6.6 and Mtb betalactam 2.
Screening Cc1nc2ccc(S(=O)(=O)NC(CC(C)C)C(=O)O)cc2s1 (stereo not drawn) returned Arbovirus inh 8, YopH inh -25, RecA splice inh -5.1, Mtb betalactam 8 and Mtb growth -1%.
COc1ccc(OC(C)C(=O)Nc2ccc([N+](=O)[O-])cc2)cc1 (stereo not drawn) was read as Arbovirus inh 7, RecA splice inh -1.9, Mtb betalactam 100 and Mtb growth inconclusive.
CN(CC(=O)Nc1ccc(C#N)cc1)Cc1ccc(Cl)cc1Cl was read as Arbovirus inh -5, YopH inh 3, Mtb betalactam 2 and Mtb growth 7%.
Screening COc1ccc(N(Cc2ccc(N(C)C)cc2)C(=O)c2ccc(S(C)(=O)=O)cc2)cc1 returned RecA splice inh 2.1 and Mtb betalactam 5.
Screening C=Cc1cccc(NC(=O)COc2ccccc2)c1 returned Arbovirus inh 3, YopH inh -40, RecA splice inh 5.3, Mtb betalactam -4 and Mtb growth 57%.
`CCOc1cc(CNCc2ccccn2)ccc1OCC(=O)NC(C)(C)C` gave Arbovirus inh -3, YopH inh -35, RecA splice inh 0.4, Mtb betalactam -2 and Mtb growth -3%.
CC(c1ccco1)N(Cc1ccco1)C(=O)Nc1ccccc1 (stereo not drawn) was read as Arbovirus inh 1, YopH inh -14, RecA splice inh 1.5, Mtb betalactam -1 and Mtb growth 6%.
`COc1ccc(NC(=O)c2cc(C(=O)Nc3ccc(OC)cc3OC)cc([N+](=O)[O-])c2)c(OC)c1` gave RecA splice inh 1.5 and Mtb betalactam 6.
For Cc1ccc2cccc(S(=O)(=O)N3CCN(c4ccccc4F)CC3)c2n1 the results were Arbovirus inh -4, YopH inh -6, RecA splice inh 7.5, Mtb betalactam -6 and Mtb growth -5%.
Screening Nc1nc(SCC(=O)Nc2ccc(OC(F)(F)F)cc2)[nH]c(=O)c1NC(=O)c1ccc(Br)o1 returned RecA splice inh -2.3 and Mtb betalactam -3.
`COc1ccccc1CNC(=O)CCS(=O)(=O)c1ccc2c(c1)CCCN2C(C)=O` gave Arbovirus inh 5, YopH inh -32, RecA splice inh 2.3, Mtb betalactam -6 and Mtb growth -13%.

Filtered by structure: those above with a cyano group
Screening N#Cc1cccc(NC(=O)Cn2c3[n+](c4ccc(C(F)(F)F)cc42)CCCCC3)c1 returned Arbovirus inh -6, YopH inh -7, RecA splice inh -0.9, Mtb betalactam inconclusive and Mtb growth 8%.
CN(CC(=O)Nc1ccc(C#N)cc1)Cc1ccc(Cl)cc1Cl was read as Arbovirus inh -5, YopH inh 3, Mtb betalactam 2 and Mtb growth 7%.

(cont.)
For CCSc1nsc(NC(=O)Nc2ccccc2F)n1 the results were RecA splice inh -1.5 and Mtb betalactam 5.
For COc1cc(/C=N/NC(=O)CCNC(=O)c2ccccc2Cl)ccc1O the results were Arbovirus inh 8, RecA splice inh -3.1, Mtb betalactam -2 and Mtb growth -1%.
For C/C(CC(=O)Nc1cccc(Cl)c1C)=N\NC(=O)C(=O)NCC(C)C the results were Arbovirus inh 4, YopH inh -32, RecA splice inh -3.0, Mtb betalactam -2 and Mtb growth 3%.
For COc1ccc(-c2cc3nc(C)cc(N4CC(C)CC(C)C4)n3n2)cc1 (stereo not drawn) the results were Arbovirus inh 0, YopH inh -7, RecA splice inh -6.9 and Mtb growth 22%.
Screening CC(NC(=O)NC12CC3CC(CC(C3)C1)C2)C1CCCO1 (stereo not drawn) returned Arbovirus inh 2, YopH inh -28, RecA splice inh 2.2, Mtb betalactam -12 and Mtb growth -7%.
`CSc1nnc(C)c(=O)n1COC(=O)COc1ccc2ccccc2c1` gave Arbovirus inh -1, YopH inh -21, RecA splice inh 5.4, Mtb betalactam 20 and Mtb growth 10%.
Screening COc1ccc(S(=O)(=O)N2CCC(C(=O)NC3CCCC3)CC2)cc1OC returned RecA splice inh -2.5 and Mtb betalactam -5.
For O=c1cc(NCCCO)c2ccccc2o1 the results were Arbovirus inh 4, YopH inh -9, RecA splice inh 0.8, Mtb betalactam -11 and Mtb growth -4%.
For O=C(CSCc1ccc([N+](=O)[O-])cc1)Nc1cccc(C(=O)Nc2ccccc2C(=O)O)c1 the results were Arbovirus inh 30, YopH inh -30, RecA splice inh 0.1, Mtb betalactam 2 and Mtb growth -13%.
For O=C(N/N=C/c1ccc([N+](=O)[O-])cc1)c1cccs1 the results were Mtb betalactam -1 and Mtb growth -2%.
Screening Cc1ccc(-c2csc(NCCn3c(C(F)(F)F)nc4ccccc43)n2)cc1 returned RecA splice inh -0.6 and Mtb betalactam 0.
For Cc1cc(C)n(CCCNC(=O)c2cc(COc3ccc(C)c(C)c3)on2)n1 the results were RecA splice inh 1.0 and Mtb betalactam -5.
Screening Cc1ccc(Cn2nnc3c(=O)[nH]c(C4CCCN(S(=O)(=O)c5ccccc5F)C4)nc32)cc1 (stereo not drawn) returned RecA splice inh -7.8 and Mtb betalactam 5.
For O=C(NC1CCCCCC1)c1ccc[nH]c1=S the results were Arbovirus inh -12, RecA splice inh -0.7, Mtb betalactam -1 and Mtb growth -2%.
Screening CC(=O)Nc1ccc(S(=O)(=O)NC2(C(F)(F)F)C(=O)Nc3c2c(=O)[nH]c(=O)n3Cc2cccnc2)cc1 (stereo not drawn) returned Arbovirus inh 6, RecA splice inh 1.0, Mtb betalactam 3 and Mtb growth 9%.

Gathered by group: the entries above with a furan ring, fused or not (7)
For Cc1ccc2cc3cc(C(=O)NCc4ccc5c(c4)OCO5)oc3nc2c1 the results were Arbovirus inh -13, YopH inh -44 and RecA splice inh -0.4.
Cn1cc(/C=N/NC(=O)c2cc3cc(Br)ccc3o2)c2ccccc21 was read as RecA splice inh -35, Mtb betalactam 1 and Mtb growth -2%.
Screening O=C(Cn1nnc(-c2ccccc2)n1)NCc1ccco1 returned Arbovirus inh 2, YopH inh -34, RecA splice inh 0.9, Mtb betalactam -1 and Mtb growth 2%.
For C=CCn1c(CNC(=O)c2ccco2)nnc1SCC(=O)Nc1cccc(Br)c1 the results were Arbovirus inh 5, YopH inh 0, RecA splice inh 2.3, Mtb betalactam -10 and Mtb growth -6%.
CC(=O)Nc1ccc(NC(=O)C(=O)NCC(c2ccco2)N2CCc3ccccc32)cc1 (stereo not drawn) was read as RecA splice inh -3.8 and Mtb betalactam -1.
CC(c1ccco1)N(Cc1ccco1)C(=O)Nc1ccccc1 (stereo not drawn) was read as Arbovirus inh 1, YopH inh -14, RecA splice inh 1.5, Mtb betalactam -1 and Mtb growth 6%.
Screening Nc1nc(SCC(=O)Nc2ccc(OC(F)(F)F)cc2)[nH]c(=O)c1NC(=O)c1ccc(Br)o1 returned RecA splice inh -2.3 and Mtb betalactam -3.

Further entries follow:
Screening Cc1ccc(C(=O)C(NC(=O)c2ccco2)Nc2sc3c(c2C(N)=O)CCCC3)cc1 (stereo not drawn) returned Arbovirus inh 6, YopH inh -27, RecA splice inh 0.5, Mtb betalactam 0 and Mtb growth 4%.
CC(=O)Nc1nc2ccccc2n1CCOc1ccccc1Cl was read as Arbovirus inh -8, YopH inh -54, RecA splice inh 1.1, Mtb betalactam 97 and Mtb growth inconclusive.
`O=C(NCc1ccccc1Cl)c1cccc(NC(=O)c2ccccc2)c1` gave Arbovirus inh -21, YopH inh -13, RecA splice inh 0.4, Mtb betalactam 5 and Mtb growth 6%.
`Nc1cc(Cl)ccc1C(=O)OCC(=O)N1CCOCC1` gave RecA splice inh -0.2, Mtb betalactam 3 and Mtb growth 3%.
`COc1ccc(F)cc1S(=O)(=O)Nc1ccc2c(c1)OCO2` gave Arbovirus inh 0, YopH inh -89, RecA splice inh -0.1, Mtb betalactam 1 and Mtb growth -5%.
Screening COc1cccc(NC(=O)N2CCN(c3cccc(C)c3)C(C)C2)c1 (stereo not drawn) returned Arbovirus inh -4, YopH inh -42, RecA splice inh 0.3, Mtb betalactam -1 and Mtb growth 3%.
`CCOC(=O)C(C)n1nc(/C=C/c2ccccc2)ccc1=O` (stereo not drawn) gave Arbovirus inh -4, YopH inh -2, RecA splice inh -1.6, Mtb betalactam -11 and Mtb growth -2%.
`COc1ccc(N2CCN(Cc3nc4c(c(=O)[nH]c(=O)n4C)n3Cc3cccc(Cl)c3)CC2)cc1` gave Arbovirus inh 12, RecA splice inh 1.1, Mtb betalactam -4, Mtb growth 16% and Arbovirus inh repeat 4.
`CC(=O)N1CCN(c2ccc(NC(=O)c3ccco3)cc2)CC1` gave RecA splice inh 1.4 and Mtb betalactam -7.
`CCOC(=O)C=Nc1c(N)n(C)c(=O)n(C)c1=O` gave Arbovirus inh 2, YopH inh 20, RecA splice inh -18, Mtb betalactam 7 and Mtb growth -5%.
Screening CCOC(=O)C(CCCCCOc1ccc([N+](=O)[O-])cc1)C(=O)OCC returned Arbovirus inh 6, YopH inh -61, RecA splice inh 11, Mtb betalactam 99 and Mtb growth 2%.
`CC1CCCN(CC(=O)Nc2ccc(S(=O)(=O)N3CCCC3)cc2)C1` (stereo not drawn) gave RecA splice inh 1.2 and Mtb betalactam 0.
Cc1ccc(S(=O)(=O)N(C)c2c(C)ccc(S(=O)(=O)Nc3ccncc3)c2C)cc1 was read as Arbovirus inh 11, YopH inh -31, RecA splice inh -1.4, Mtb betalactam 1 and Mtb growth 2%.
For Cc1ccccc1NC(=S)NC(=O)COc1ccccc1C the results were RecA splice inh 3.7 and Mtb betalactam -1.
